# Source: PubChem (National Center for Advancing Translational Sciences (NCATS))
# AmpC nodet inh: AmpC beta-lactamase inhibition, detergent-free assay; AmpC nitrocefin hydrolysis, absorbance 480 nm, no detergent; potencies from a single point are estimates; Potency, µM (doses to about 28.7 µM), for inactives: top-dose activity change, negative = inhibition; actives 1.8% (n = 71,000); AID 585; active = falling curve, for most hits resting on a single point; inconclusive = weak or doubtful change; inactive = flat or rising curve; also: % of control where 0% means no effect; about half of the hits show no inhibition at the top dose; a quarter of the inactives give rising signals
# Target sequence (P00811 whole entry, looked up): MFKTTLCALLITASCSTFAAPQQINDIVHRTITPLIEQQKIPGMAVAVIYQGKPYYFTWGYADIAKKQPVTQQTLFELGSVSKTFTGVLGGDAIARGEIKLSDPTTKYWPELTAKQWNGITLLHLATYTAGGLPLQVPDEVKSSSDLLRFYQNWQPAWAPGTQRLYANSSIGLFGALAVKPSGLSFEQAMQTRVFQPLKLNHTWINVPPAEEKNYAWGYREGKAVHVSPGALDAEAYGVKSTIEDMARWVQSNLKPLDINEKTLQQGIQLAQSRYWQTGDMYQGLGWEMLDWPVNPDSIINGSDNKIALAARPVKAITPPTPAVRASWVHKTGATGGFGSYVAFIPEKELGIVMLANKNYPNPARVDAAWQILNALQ
#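 AmpC, 20 mM phosphate pH 7.0; 15 min cpd preinc, RT; start with nitrocefin (800 uM stock); A480 kinetic read, 20 s intervals, 4 min. No-enzyme wells = negative control.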
# Numbers without * were called inactive; [ ] = dose if it differs, or a comment. Potency is read from the fitted curve at half-maximal effect. This is a subset; rates above refer to the full screens.
# Sample of the layout, 16 compounds:
SMILES,AmpC nodet inh
CCOc1cc(C#N)c(NC(=O)CSc2nnnn2-c2ccc(OC)cc2)cc1OCC,84%
O=C(NCc1ccco1)c1cc(S(=O)(=O)N2CCOCC2)c(Cl)cc1Cl,13%
Cc1cccc(OCC(=O)N2CCC(c3ccccc3)C2)c1 (stereo unspecified),50%
CC(=O)NCCn1c(SCC(=O)NCC2CCCO2)nc2ccccc2c1=O (stereo unspecified),4%
Cc1ccc2cccnc2c1,-1%
COC(=O)CCCCCC(CCC(=O)OC)NC(C)=O (stereo unspecified),0%
CCCCOc1ccc(C(=O)Nc2ccc(N3CCN(C(=O)C(C)C)CC3)cc2)cc1,86%
CCCOC(=O)c1c(-c2ccccc2)nc(CC)c(C(=O)SCC)c1CCC,19%
CCOC(=O)CSc1nc2c(sc3ccccc32)c(=O)n1CCCN1CCOCC1,136%
Cc1nnc(SCC(=O)Nc2ncc3c(n2)CCCC3=O)s1,-15%
COc1ccccc1-c1cncnc1NCCN1CCOCC1,14%
CC(C)=CC(=O)Nc1ccccc1Br,7%
Cn1c(CCN2CCCCC2)nc2cc(NS(=O)(=O)c3ccc(F)cc3)ccc21,4%
COc1ccc2c(c1)c1c(n2C(C)=O)C(OC(C)=O)=NCC1,5%
NC(=O)OC[C@H](O)COc1ccc(Cl)cc1,10%[12.8 µM]
Cc1cc(NC(=O)CSc2nnc3c(C)cc4cc(C)c(C)cc4n23)no1,36%

# All compounds of this part (from the top)
SMILES,AmpC nodet inh
CCOc1cc(C#N)c(NC(=O)CSc2nnnn2-c2ccc(OC)cc2)cc1OCC,84%
O=C(NCc1ccco1)c1cc(S(=O)(=O)N2CCOCC2)c(Cl)cc1Cl,13%
Cc1cccc(OCC(=O)N2CCC(c3ccccc3)C2)c1 (stereo unspecified),50%
CC(=O)NCCn1c(SCC(=O)NCC2CCCO2)nc2ccccc2c1=O (stereo unspecified),4%
Cc1ccc2cccnc2c1,-1%
COC(=O)CCCCCC(CCC(=O)OC)NC(C)=O (stereo unspecified),0%
CCCCOc1ccc(C(=O)Nc2ccc(N3CCN(C(=O)C(C)C)CC3)cc2)cc1,86%
CCCOC(=O)c1c(-c2ccccc2)nc(CC)c(C(=O)SCC)c1CCC,19%
CCOC(=O)CSc1nc2c(sc3ccccc32)c(=O)n1CCCN1CCOCC1,136%
Cc1nnc(SCC(=O)Nc2ncc3c(n2)CCCC3=O)s1,-15%
COc1ccccc1-c1cncnc1NCCN1CCOCC1,14%
CC(C)=CC(=O)Nc1ccccc1Br,7%
Cn1c(CCN2CCCCC2)nc2cc(NS(=O)(=O)c3ccc(F)cc3)ccc21,4%
COc1ccc2c(c1)c1c(n2C(C)=O)C(OC(C)=O)=NCC1,5%
NC(=O)OC[C@H](O)COc1ccc(Cl)cc1,10%[12.8 µM]
Cc1cc(NC(=O)CSc2nnc3c(C)cc4cc(C)c(C)cc4n23)no1,36%
Cn1nnnc1SCC(=O)Nc1ccc(Cl)cc1Cl,9%
CC(NC(=O)c1ccc2c(c1)OCCO2)C(=O)O (stereo unspecified),0%
COCCn1c(=S)[nH]c2cc(OC)c(OC)cc2c1=O,5%
CCOC(=O)C1=C(C)NC(=O)NC1c1ccc(OCC(=O)Nc2ccccc2)c(OC)c1 (stereo unspecified),35%
CCCCCCn1c(=O)c(C(=O)Nc2ccncc2)c(O)c2ccccc21,1%
CC1CCN(CCC(=O)Nc2ccc(Br)cc2)CC1,-4%
O=C(NCc1ccco1)c1cc(-c2cccnc2)nc2ccc(Cl)cc12,110%
O=C(CN1C(=O)c2ccccc2S1(=O)=O)Nc1ccc(S(=O)(=O)N2CCCCCC2)cc1,-18%

# Individual results from the results shown.
# `Cn1c(CCN2CCCCC2)nc2cc(NS(=O)(=O)c3ccc(F)cc3)ccc21` in AmpC nodet inh is listed with 4%
# `Cc1cc(NC(=O)CSc2nnc3c(C)cc4cc(C)c(C)cc4n23)no1` in AmpC nodet inh is listed with 36%

# Further compounds
SMILES,AmpC nodet inh
Cc1ccccc1NS(=O)(=O)c1cccc(-c2nnc(-c3ccccc3)o2)c1,-17%
CCN(CC)S(=O)(=O)c1ccc(NC(=O)CN(c2ccc(OC)cc2OC)S(C)(=O)=O)cc1,78%
COc1ccccc1N1CCN(C(CNS(=O)(=O)c2cc(F)ccc2F)c2cccnc2)CC1 (stereo unspecified),91%
COc1ccc(Cn2nnnc2C(c2ccc(C)cc2)N2CCN(C3CCCC3)CC2)cc1 (stereo unspecified),65%
CCCCN(C)Cc1c(C)[nH]c2ccc(OCC)cc2c1=O,4µM*[single pt active]
COc1ccc(S(=O)(=O)N2CCN(c3nc4ccccc4nc3-n3nc(C)cc3C)CC2)cc1,63%
O=C(Cn1nc(-c2ccc3c(c2)OCCO3)ccc1=O)Nc1ccc(N2CCOCC2)cc1,77%
O=C(O)c1ccc(N2C(=O)CC(Cc3ccccc3)C2=O)cc1 (stereo unspecified),0%
CC(C)c1ccc(NC(=O)C(c2ccccc2)N2CCN(C=O)CC2)cc1 (stereo unspecified),88%
Cc1ncsc1CCSc1nc2ccccc2c(=O)n1C,32%
CCOC(=O)c1ccccc1NC(=O)Cn1c(-c2nonc2N)nc2ccccc21,-6%
O=C(c1cccc(F)c1)N1CCC[C@@]2(CCN(C(c3ccccc3)c3ccccc3)C2)C1,-5%
Cc1ccccc1-n1c(=O)cc(N2CCC3(CC2)OCCO3)[nH]c1=O,8%
O=c1cc(CSc2nnc(-c3cccs3)n2Cc2ccccc2)nc2sc3ccccc3n12,-8%
Cc1nc2c(-c3ccccc3)c(C)nn2c(C)c1CCC(=O)O,12%
Nc1nonc1-c1noc(CCCOc2ccc(Cl)cc2Cl)n1,-13%
Cc1cc(N)n(-c2ccccc2)n1,6%
CC(C)CC(C(=O)NCc1ccccn1)N1C(=O)c2ccccc2C1=O (stereo unspecified),37%
COc1cc(OC)c(C2CC(=O)N3CN(c4ccccc4)CSC3=C2C#N)cc1OC (stereo unspecified),57%
COc1ccccc1-c1nc(SCc2ccccn2)n[nH]1,16%
CS(=O)(=O)NCCOc1ccc(S(=O)(=O)N2CCCc3ccccc32)cc1,40%
CN1c2cccc3cccc(c23)N(C)C1(C)C,-7%
O=c1[nH][nH]c(=O)c2cc([N+](=O)[O-])ccc12,-8%
COc1ccccc1N1CCN(Cc2nnnn2CCc2ccccc2)CC1,117%
OCCN1CCN(Cc2cccc(Oc3ccc(Cl)cc3)c2)CC1,50%
Cc1ccc(N2C(=O)NC3(CCCCC3)C2=O)cc1,-2%
Cc1oc2c(CN(C)C)c(O)ccc2c(=O)c1-c1ccc2ccccc2n1,-11%
CN(C)c1nc(-c2cccnc2)nc2ccccc12,36%
CCN(CC(=O)NCCc1ccc(S(N)(=O)=O)cc1)Cc1nc2ccccc2c(=O)[nH]1,8%
CCOc1ccccc1C1C(C(=O)OC)=C(N)OC2=C1C(=O)CCC2 (stereo unspecified),-4%
Cc1cccc(CNc2ncnc3ccc(-c4ccccc4CN(C)C)cc23)c1,85%
CC(=O)Nc1ccc(S(=O)(=O)N2CCSC2c2ccc(Cl)cc2)cc1 (stereo unspecified),33%
Cc1cc(=O)[nH]c(S/C=C/c2ccccc2)n1,-9%
CC(C)CCN1CC(C(=O)NCc2ccc(F)cc2)CC1=O (stereo unspecified),11%
COc1ccc(-c2cn3c(n2)CCC3)cc1,-11%
COc1cc(OC)cc(C(=O)NCc2n[nH]c(=S)n2-c2ccccc2)c1,0%
CCOC(=O)N1CCN(C(=O)CN(Cc2ccccc2)S(C)(=O)=O)CC1,23%
CCc1cc(C(=O)N2CCOCC2)c(NC2=NS(=O)(=O)c3ccccc32)s1,-5%
CC1(C)CO[C@H](CC(=O)O)CN1,11%
COc1ccc(N2CCN(C(=O)c3ccc(NS(=O)(=O)c4ccccc4)cc3)CC2)cc1,17%
CN(C)C(=O)c1ccc(-c2nc(Nc3ccc(F)cc3)c3ccccc3n2)cc1,108%
O=c1c(-c2cccs2)nc2cnc(N3CCOCC3)nc2n1CCc1ccccc1,-14%
COc1cccc2cc(C(=O)Nc3cccnc3N3CCOCC3)c(=O)oc12,51%
O=C(O)c1cc2cc(Cl)cc(Cl)c2oc1=O,-9%
Cc1ccc(C(=O)O)cc1,-8%
O=C(O)C1CC(=O)N(C2CCCCCC2)C1 (stereo unspecified),-6%
Cc1nnc(SCC(=O)c2ccc(S(=O)(=O)N3CCOCC3)cc2)n1-c1ccccc1,123%
COc1ccc(-c2nnn(CC(=O)N(CC(=O)NCCC(C)C)c3ccccc3)n2)cc1OC,69%
COc1ccccc1CNc1ccnc(-c2c(C)noc2C)n1,0%
NC(Cc1ccccc1)=NCC(=O)O,7%[5.75 µM]
Cc1c(CNC(=O)c2cnn3c2NC(c2ccc(Br)cc2)CC3C(F)(F)F)cnn1C (stereo unspecified),129%
CCn1c(=O)[nH]c2cc(C(=O)N3CCN(c4ccccc4)CC3)ccc2c1=O,24%
CN(C)c1ccc(S(=O)(=O)c2ccc(Cl)cc2)cc1,-8%
COc1ccc(C(=O)Nc2oc(-c3ccccc3)c(-c3ccccc3)c2C#N)cc1OC,60%
O=C1CCCC2=C1C(c1ccncc1)c1c(nc(SCc3ccccc3Cl)[nH]c1=O)N2 (stereo unspecified),70%
CCOC(=O)c1sc2nc(C)n(CC(=O)NCC3CCCO3)c(=O)c2c1C (stereo unspecified),26%
O=C(CCn1c(=O)c2ccccc2n(Cc2cccnc2)c1=O)NCc1ccc2c(c1)OCO2,0%
Cc1noc(C)c1COC(=O)C1(c2cccc(F)c2)CCCC1,20%
COC(=O)c1ccccc1NC(=O)CN(c1ccccc1)S(=O)(=O)N(C)C,42%
N#CC1=C(N)Oc2ccccc2C12C(=O)Nc1n[nH]c(-c3ccccc3)c12 (stereo unspecified),0%

# Continuation:
SMILES,AmpC nodet inh
CC(O)CN(Cc1cccc(Cl)c1)CC(C)O (stereo unspecified),2%
COc1ccc(C2C(C(=O)N3CCCC3)c3cc(OC)c(OC)cc3C(=O)N2C)cc1OC (stereo unspecified),-6%
CC(=O)NC(Cc1c[nH]c2ccccc12)C(=O)Nc1ccc2c(c1)OCO2 (stereo unspecified),-5%
CC(=O)NC1(C2CCCCC2=O)CCCCC1 (stereo unspecified),13%
COc1ccc(NC(=O)Nc2nccs2)cc1,-5%
CCCOc1cccc(C2/C(=C(/O)c3ccncc3)C(=O)C(=O)N2CCCN(C)C)c1 (stereo unspecified),-14%
Cc1ccc(S(=O)(=O)N2CCOCC2)cc1C(=O)OCC(=O)N1CCc2ccccc2C1,79%
CCCOc1ccc(-c2nc(C#N)c(N3CCN(CC)CC3)o2)cc1,123%
CCN=C1Cn2c(nc3scc(-c4ccccc4)c3c2=O)CN1CC,33%
CCCCCCCCCCCCC/C=C\[C@@H](O)[C@@H](N)CO,21%
CC(=O)Nc1ccccc1C(=O)N1CC(C)OC(C)C1 (stereo unspecified),0%
CCC(=O)N1CCc2cc(S(=O)(=O)CCC(=O)Nc3c(C)n(C)n(-c4ccccc4)c3=O)ccc21,9%
CC(C)=CCC/C(C)=C/CO,7%[5.75 µM]
CCCCN1CCC(C#N)(Nc2ccccc2)CC1,-10%
O=C1CC(N2CCN(S(=O)(=O)c3ccc(Cl)cc3)CC2)C(=O)N1CCc1ccccc1 (stereo unspecified),100%
C/C=C/Cn1c(N2CCCCCC2)nc2c1c(=O)[nH]c(=O)n2C,17%
CC(=N)C1=C(O)CC(C)(C)CC1=O,0%
Nc1ccc(S(=O)(=O)NCc2nccs2)cc1,16%[5.75 µM]
C/C(Cl)=C/Cn1c(NCCN(C)C)nc2c1c(=O)n(C)c(=O)n2C,-16%
CCOC(=O)C1=C(C)OC(N)=C(C#N)C12C(=O)Nc1ccc(C)cc12 (stereo unspecified),23%
Clc1ccc(-c2nnc(SCc3cn4ccsc4n3)n2CC2CCCO2)cc1 (stereo unspecified),22%
COc1ccc(CN[C@H](C)C(=O)O)cc1,0%[5.75 µM]
CC(=O)NC(CC(=O)Nc1ccc(S(=O)(=O)N2CCCC2)cc1)c1ccccc1 (stereo unspecified),4%
NC(=O)C1CCCN(C(=O)NC2CCCCC2)C1 (stereo unspecified),4%
Nc1ncnc2nn([C@H]3O[C@@H](CO)[C@@H](O)[C@H]3O)nc12,2%[5.75 µM]
O=S(=O)(Nc1ccc2c(c1)OCCO2)c1cccc2nsnc12,-11%
C[Si](C)(C)Cl,-5%
CCCn1c(=N)n(CC(=O)C(C)(C)C)c2ccccc21,41%
COc1ccc(C2C3=C(CCCC3=O)Nc3nc(C(F)(F)F)nn32)cc1OC (stereo unspecified),7%
Cc1noc(NS(=O)(=O)c2ccc(NC(=O)c3ccc(Br)o3)cc2)c1C,-12%
NC(=O)CSc1nc2c(sc3ccccc32)c(=O)n1CCCN1CCOCC1,40%
O=C(NC1CCCC1)c1cc(-c2cccs2)on1,-3%
CCOC(=O)CC1C(=O)NCCN1C(=O)COc1ccc(Br)cc1C (stereo unspecified),50%
O=C(c1cc2ccccc2o1)N1CCN=C1SCc1cccc(F)c1,-2%
Fc1cccc2sc(N3CCCCC3)nc12,-4%
Cc1sc2nc(CN(Cc3cccs3)C(=O)NC3CCCCC3)[nH]c(=O)c2c1C,2%
CC(=O)c1ccccc1Oc1nc(CN2CCOCC2)nc2scc(-c3cccs3)c12,121%
O=C(O)CNc1ccc(C(=O)O)cc1,-4%[5.75 µM]
COCCNC(=O)CN1CCC(NC(=O)Nc2ccccc2)CC1,-1%
COc1ccc2c3c([nH]c2c1)C(C)=NCC3,-1%
Cc1ccc(S(=O)(=O)NC(=O)Nc2ncn[nH]2)cc1,-3%[5.75 µM]
O=C(CSc1ncn(-c2ccccc2)n1)N1CCN(c2ccccc2)CC1,48%
CC(C)CC(/C(O)=C(\C#N)c1nc2ccccc2[nH]1)N1C(=O)c2ccccc2C1=O (stereo unspecified),42%
CCNc1nc(NCC)nc(N(C)n2cnnc2)n1,0%
Clc1ccc(-c2nc(-c3ccccn3)no2)cc1Cl,8%
Fc1cccc(Nc2cc(-n3cccn3)ncn2)c1,-19%
CC(=O)NC(Cc1ccccc1)C(=O)NC1CCN(C(=O)c2cnccn2)CC1 (stereo unspecified),-5%
CCOc1cc(CN2CCN(c3ccc(C(C)=O)cc3)CC2)ccc1OC,59%
C=CCn1c(SCC(=O)Nc2nnc(CC)s2)nnc1-c1ccco1,3%
